# Menin-MLL FL inh: inhibitors of human menin-MLL interaction, wild-type MLL peptide; FP activity change, % at 61.4 µM; Fluorescence polarization, fluorescein-MLL peptide displacement from menin; 290,000 tested, under 10 active; inconclusive = falling polarisation curve, or a change in total fluorescence; inactive = total fluorescence flat and polarisation flat or rising; no compound was filed as active; the % refers to the polarisation; negative = inhibition;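 note: % of control where 0% means no effect; inhibitors lower the polarisation; unlabelled MLL peptide was the positive control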
# gsp antag: antagonists of gsp mutant (McCune-Albright syndrome). gsp-mutant cells, cAMP HTRF, 30 min; control for the full effect not named in the record. Potency, µM (titrated, usually from 76.9 µM), for the others: at the highest dose activity change, negative = inhibition, hits mostly inhibitors. AID 624288. 340,000 tested, 0.4% active; active = falling curve of any shape with a large fitted effect; inconclusive = falling curve, mostly with a smaller effect; inactive = flat or rising curve; cell line not stated here;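 note: intracellular cAMP measured with PDE inhibitor Ro 20-1724 present during compound exposure; potency is the fitted concentration of half-maximal effect; % is set by controls: 0 for no effect and ±100 for the full control effect; nearly all actives have a fitted effect of over 65% in size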
#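 HTRF cAMP measurement after 30 min RT detection following 30 min, 37C compound treatment alongside […] (added as 300 uM solution) in G418-selected cells seeded at 2000/well and grown 16–24 h.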
# gsp agonist: activates gsp, the McCune-Albright syndrome mutation; gsp mutant cells, cAMP HTRF, 30 min; control for the full effect not named in the record; Potency, µM (titrated, usually from 76.9 µM), for inactives: top-dose activation (cAMP increase), actives largely listed as activators; 340,000 tested, 0.13% active; AID 624287; active = well fitted activation curve with a large enough effect; inconclusive = small, poorly fitted or top-dose-only effect, or another doubt; inactive = no such curve, though single readings can be large or run the other way; cell line not stated here;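 note: phosphodiesterase inhibitor Ro 20-1724 added with compounds to block cAMP breakdown; potency is the fitted concentration of half-maximal effect; nearly all actives have a fitted effect of over 60% in size; about a fifth of the inactives were tested at one dose only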
#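 Cells stably selected in G418 were plated at 2000/well, grown 16-24 hr, then given compounds in DMSO with the PDE inhibitor […] (300 uM solution added) for 30 min at 37C; cAMP was read by HTRF.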
# ClpP mod: qHTS Assay for Activators of ClpP | ATP-dependent Clp protease proteolytic subunit (Bacillus subtilis (strain 168)), P80244 | 340,000 tested, 1.9% active | Potency, µM (top dose mostly 57.5 µM), inactives show at the top dose activity change, negative = active | purified B. subtilis ClpP, FRET peptide cleavage, 20 min; active = well fitted falling curve with a large enough effect; inconclusive = small, poorly fitted or top-dose-only effect; inactive = no such curve, though single readings can be large or run the other way; note: potency is the fitted concentration of half-maximal effect; the source files actives as falling curves though it sought activators and does not explain the sign; nearly all actives have a fitted effect of over 65% in size; many hits overshoot -100%
# Target sequence (P80244 whole entry, looked up): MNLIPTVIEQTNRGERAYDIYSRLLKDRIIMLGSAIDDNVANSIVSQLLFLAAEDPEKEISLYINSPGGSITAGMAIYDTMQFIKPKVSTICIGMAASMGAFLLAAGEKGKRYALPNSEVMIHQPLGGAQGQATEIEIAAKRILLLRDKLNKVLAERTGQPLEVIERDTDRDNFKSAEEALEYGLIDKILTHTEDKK
#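 FRET quenching reversal measured ClpP activation: 10 microg/mL B. subtilis ClpP at pH 8 with the FRET-FV decapeptide, read at 430 nm after 320 nm excitation. The 20-min minus 0-min signal was scaled between DMSO/no-enzyme wells and ADEP (5.8 microM final).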
# D2 ag: human D2 receptor agonism in beta-arrestin assay. P14416. DiscoveRx PathHunter D2 beta-arrestin, luminescence, 90 min; 100% = 57 uM dopamine signal. 360,000 tested, 0.084% active. activation, % (test concentration not listed); in the data active = activation above about 40%; inconclusive = about 15% to 40%; inactive = below about 15%; note: compound concentration not given in the record; the text of the record calls up to 30% inactive
# Target sequence (P14416 whole entry, looked up): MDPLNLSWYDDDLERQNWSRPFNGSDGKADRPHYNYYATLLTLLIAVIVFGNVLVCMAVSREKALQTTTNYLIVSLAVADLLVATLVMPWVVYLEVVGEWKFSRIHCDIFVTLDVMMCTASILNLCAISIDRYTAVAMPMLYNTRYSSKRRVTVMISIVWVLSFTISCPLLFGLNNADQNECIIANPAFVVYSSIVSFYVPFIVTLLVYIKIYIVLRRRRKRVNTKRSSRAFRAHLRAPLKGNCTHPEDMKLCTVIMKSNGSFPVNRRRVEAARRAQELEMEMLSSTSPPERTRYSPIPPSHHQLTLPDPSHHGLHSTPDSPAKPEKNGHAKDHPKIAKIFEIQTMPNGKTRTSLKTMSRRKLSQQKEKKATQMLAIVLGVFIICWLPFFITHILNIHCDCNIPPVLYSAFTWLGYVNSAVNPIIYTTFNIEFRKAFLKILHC
#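 DiscoveRx PathHunter D2 beta-arrestin cells (2,100/well) attached overnight, then compound-stimulated 90 min at 37 C in HBSS/10 mM HEPES/0.1% Tween-20 buffer; beta-galactosidase complementation read by luminescence after 1 h at ambient temperature. Dopamine 57 uM final (EC100) as control.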
# PINK1 expr mod: modulators of PINK1 expression; PINK1 immunofluorescence, high-content cytometry, 24 h; Potency, µM (doses to about 76.6 µM), without a hit: at the highest dose activation (PINK1 increase), usual class: activators; 410,000 tested, 0.2% active; AID 624263; active = well fitted activation curve with a large enough effect; inconclusive = small, poorly fitted or top-dose-only effect; inactive = flat fitted curve, though single readings scatter; cell line not stated here;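 note: potency is the fitted concentration of half-maximal effect; % of control where 0% means no effect; nearly all actives have a fitted effect of over 65% in size; a mitochondrial uncoupler was the plate control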
#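 Fluorescence from anti-PINK1 antibody, together with nuclear and cell stains, was scanned on a laser-scanning cytometer. Before staining, stable-line cells were incubated 24 hours with compounds at 5 concentrations; primary antibody 12 h at 10 degrees C.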
# Sfp PPTase inh: inhibitors of Bacillus subtilis Sfp phosphopantetheinyl transferase. Q9F4F7. Biochemical Sfp PPTase activity, qHTS. Potency, µM, inactives show max response, negative = inhibition, most hits filed as inhibitors. 310,000 tested, 3.5% active. AID 1490; active = well fitted inhibition curve with a large enough effect; inconclusive = small, poorly fitted or top-dose-only effect, or another doubt; inactive = no such curve, though single readings can be large or run the other way;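 note: the enzyme is Sfp with the accession as filed and its product quenches rhodamine fluorescence; potency is the fitted concentration of half-maximal effect; 0% = enzyme reaction without inhibitor and -100% = no enzyme wells; top concentration of the series not given in the record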
#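 With Hepes-Na pH 7.6 buffer containing 10 mM MgCl2, Sfp (15 nM) modified BHQ-2-YbbR (12.5 uM) using rhodamine-CoA (5 uM). Two reads 30 minutes apart at 525/598 nm yielded each well's rate.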
# * hit, by the source's call; ? = inconclusive; · = no result given; & = joins results of further samples; [ ] = another dose, or the depositor's remark.
SMILES,Menin-MLL FL inh,gsp antag,gsp agonist,ClpP mod,D2 ag,PINK1 expr mod,Sfp PPTase inh
Cc1nc2ccccc2n1CC(O)COCC1CC=CCC1 (configuration not stated),1.9,-6%,5%,-1.5%,1.2,1.2%,16%
Cc1ccc(S(=O)(=O)N2[C@@H](c3cccc(Cl)c3)C(C(=O)O)=CC[C@H]2c2ccc(Cl)c(Cl)c2)cc1,·,-19%,-22%,-3.8%,-1.0,0.2%,·
Cc1ccc(CN2CC(N3CC=CC3)CS2(=O)=O)cc1 (configuration not stated),·,·,·,-4.0%,-3.5,0.1%,·
O=C(COC(=O)c1c(Cl)ccc(Cl)c1Cl)NC(=O)NCc1ccccc1,-0.7,-4%,8%,-1.1%,1.5,10%,5%
O=C(NC1CCN(S(=O)(=O)c2cccc(Cl)c2)CC1)C1CCCCC1,2.0,10%,7%,·,-5.8,6.3%,18%
CSCCC(NC(=O)c1ccc(Cl)cc1)C(=O)OCC(=O)c1ccc[nH]1 (configuration not stated),1.1,0%,5%,-1.0%,-2.9,0.7%,10%
CCC(=O)Nc1nnc(S(=O)(=O)N(CC)c2cc(C)cc(C)c2)s1,-0.5,-17%,4%[15.4 µM],-0.1%,-2.7,0.3%,9%
Cc1ccc2oc(C(=O)N3CCN(CC(=O)NC(C)C)CC3)c(C)c2c1,-10,3%,-54%[inhibitor],·,1.6,2.2%,19%
O=C(c1cc(-c2cccc3ccccc23)nc2ccccc12)N1CCN(CCO)CC1,·,-1%,3%,?,11,-0.2%,·
O=C1CCN(Cc2cccnc2)CCN1[C@H](CO)c1ccccc1,1.4,1%,·,2.4%&-3.0%,-0.2,1.2%,14%
COc1ccccc1N1CCN(C(=O)c2ccc(N3CCCCS3(=O)=O)cc2)CC1,2.0,-4%,?,-1.6%,-3.4,0.3%,-2%
CCOc1ccc(NC(=O)CN(C)C(=O)CCc2ccccc2Cl)cc1OCC,·,-21%,-6%,1.2%,-1.6,0.4%,13%
Brc1cc2c(cc1-c1nc3ccccc3s1)OCO2,1.9,2%,?,·,-0.8,9.2%,-24%
COc1ccc(CCN=C(N)NS(=O)(=O)c2ccc(F)cc2)cc1,0.6,-2%,0%[15.4 µM],·,-6.0,-0.3%,16%
CC(=O)NCC(=O)N(c1c(C)n(C)n(-c2ccccc2)c1=O)C1(C(=O)NC2CCCC2)CCCCC1,5.3,1%,-27%,0.3%,-3.6,1.3%,13%
CSc1nsc(SCC(=O)Nc2ccccc2C(N)=O)n1,0.2,2%,19%[15.4 µM],·,-3.0,0.3%,2%
CCN(CC)CCCNC(=O)c1cc(-c2ccc3c(c2)OCO3)on1,5.6,3%,-46%[inhibitor][15.4 µM],·,1.5,-0.1%,8%
CCOC(=O)C1(Cc2ccccc2)CCN(Cc2ccon2)CC1,-4.1,2%,-29%,·,-3.1,-0.4%,14%
OC(CNCCc1ccc(C(F)(F)F)cc1)COc1cccc2ccccc12 (configuration not stated),8.2,-13%,1%,-7.5%,-10,-1.5%,25µM*
CCOc1ccccc1Nc1nc2ccccc2n1C(C)C,1.3,-5%,21%,·,-4.7,17%,17%
O=C(CSc1nnc2ccccn12)NNC(=O)c1cccc(Cl)c1,·,7%,-10%[15.4 µM],3.1%,-3.7,-0.7%,·
CC1CCCN(c2nc3c(c(=O)n(C)c(=O)n3C)n2CCSc2nc3ccccc3s2)C1 (configuration not stated),8.8,-31%,31%,-0.4%,-3.1,0.9%,6%
COc1cccc(C(=O)Nc2nnc(S(=O)(=O)N(C)c3ccccc3)s2)c1,·,-13%,5%,-9.1%,-2.6,0.3%,5%
Cc1ccc(COc2cccc(/C=N/NC(=O)c3nnn(-c4nonc4N)c3C)c2)cc1,-0.7,6%,-1%,-4.9%,-4.2,8.2%,4%
CCCOc1cccc(C2C(C(=O)c3ccco3)=C(O)C(=O)N2c2nnc(C)s2)c1 (configuration not stated),?,-19%,?,-1.7%,-6.7,-0.3%,-13%
C#CCOC(=O)CCCN1C(=O)c2cccc3cccc(c23)C1=O,·,·,?,3.7%,-2.5,0.1%,·
CCOC(=O)CSc1nnc(CSc2nc3sc4c(c3c(=O)[nH]2)CCC4)n1-c1ccccc1,1.4,-11%,-2%,-2.1%,-0.2,0.2%,9%
N=c1n(CCO)c2ccccc2n1Cc1ccccc1Cl,-0.2,9%,6%,-1.4%,0.5,0.5%,3%
Cc1ccc(C(C(=O)NC2CCCC2)N(Cc2cccnc2)C(=O)c2snc(C(N)=O)c2N)o1 (configuration not stated),-0.2,1%,?,-19%,-3.2,2.9%,-32%
Cc1ccc(NC(=O)N(Cc2cccnc2)Cc2ccco2)cc1C,3.1,9%,15%,0.6%,-2.6,2.7%[38.3 µM],13%
COC(=O)CSc1nnc(-c2ccc(S(=O)(=O)N3CCC(C)CC3)cc2)o1,4.4,-9%,?,0.4%,0.5,-5.2%[38.3 µM],14%
CCOc1ccccc1NC(=S)NC(=O)CCCOc1ccc(Cl)cc1Cl,-2.3,-2%,-1%,-3.8%,-0.1,-2.7%[38.3 µM],9%
Cc1cc(N2CCN(S(=O)(=O)c3ccc(C)c(C)c3)CC2)c2ccccc2n1,-0.1,-18%,?,-5.2%,-1.7,1.7%[38.3 µM],-21%
COc1ccc(CC(=O)NNC(=O)c2ccncc2)cc1,3.8,-1%,0%[15.4 µM],-12%,-5.9,0.0%,6%
CC(C)C[C@@H](C(=O)N[C@@H](C(=O)O)c1ccccc1)N1C(=O)N2CCc3c([nH]c4ccccc34)[C@@]2(C)C1=O,2.1,2%,·,0.3%,-2.6,1.3%,6%
CN(c1ccc(OCC(=O)OCC(=O)NC2CCCC2)cc1)S(=O)(=O)c1ccc2ccccc2c1,4.6,-6%,13%,·,-2.9,3.1%,-2%
Cc1cc(Br)ccc1NC(=O)CNC(=O)Cn1ncc(Cl)c(Cl)c1=O,8.9,-41%,-16%[15.4 µM],·,-3.7,-2.0%,-8%
COc1ccc(N2CCN(C(=O)c3ccccc3N(C)S(=O)(=O)c3ccc(C)cc3)CC2)cc1,·,-8%,12%,-0.9%,-3.2,?,0%
CC(C)CNC(=O)COC(=O)c1cc(Cl)cc(Cl)c1N,4.3,?,4%,16µM*,-0.1,-1.3%,-8%
O=C(N/N=C/c1cccc([N+](=O)[O-])c1)c1ccc(COc2ccccc2-c2ccccc2)cc1,6.1,-2%,2%,1.7%,-1.4,-0.1%,17%
O=C(O)CCCNC(=O)CC1S/C(=N/N=C/c2ccccc2O)NC1=O (configuration not stated),-1.3,4%,2%,1.2%,-4.4,0.8%,23%
Cn1cccc1-c1nc2ccc(NC(=O)c3cccs3)cc2[nH]1,3.8,?,8%,-2.7%,4.0,1.3%,-4%
Clc1ccccc1CN1CCN(c2ncccn2)CC1,0.2,2%,-3%[15.4 µM],1.2%,70*,0.9%,-22%
O=C(CSc1ccc(Cl)cc1)N1CCN(c2ncc(C(F)(F)F)cc2Cl)CC1,-0.3,-1%,-12%,-4.1%,-1.8,5.3%[38.3 µM],3%
O=C(c1cc(COc2ccc(F)cc2F)on1)N1CCCC(c2ccccc2)C1 (configuration not stated),13,-10%,-2%[15.4 µM],·,1.5,0.5%,14%
CCN(CC)C(=O)c1ccc(-c2cccs2)s1,2.2,-5%,-2%[15.4 µM],-27%,-4.2,-0.9%,4%
Cc1cccc(N(C(=O)CNC(=O)c2ccco2)C(C(=O)NC2CCCC2)c2cccnc2)c1 (configuration not stated),3.4,-6%,-23%,0.4%,-2.0,-1.0%,15%
CCOC(=O)c1cc(C#N)c(Oc2ccccc2OC)nc1-c1ccccc1,1.5,2%[15.4 µM],1%,?,-1.7,0.5%,-2%
Cc1ccc(NC(=O)COC(=O)/C=C/c2cccs2)cc1,5.0,1%,-2%,-2.5%,2.1,2.7%,2%
CCN(CC(=O)Nc1ccc(S(=O)(=O)N2CCCC2)cc1)Cc1ccccc1,·,-13%,12%,0.8%,-1.8,1.8%,·
CC1(C)Cc2ccccc2-c2nc(NCCCO)[nH]c(=O)c21,1.1,0%,15%[15.4 µM],·,-4.8,-0.9%,16%
CC(C)(C)n1ncc2c(=O)n(CC(=O)N3CCCc4ccccc43)cnc21,0.9,-5%,14%,-3.4%,-2.9,1.2%,19%
c1cncc(C(c2nnnn2C2CCCCC2)N2CCN3CCCC3C2)c1 (configuration not stated),0.0,-6%,-7%,-0.4%,-3.4,-2.6%,6%
O=C(c1ccc2c(c1)OCO2)C1CCCN(Cc2cn[nH]c2-c2cccc(F)c2)C1 (configuration not stated),-0.5,0%,-15%[15.4 µM],·,-2.4,1.8%,20%
O=S(=O)(NCCN1CCOCC1)c1ccc(F)c(Cl)c1,-0.3,15%,14%,·,-3.2,3.7%,-7%
CC1(C)CC(NC(=O)c2cccc(F)c2)CC(C)(C)N1,9.1,1%,-8%,·,2.3,0.4%,0%
CC(Sc1ccc(S(=O)(=O)N2CCN(C)CC2)cn1)C(=O)Nc1cccc(Cl)c1Cl (configuration not stated),·,-28%,6%,-0.3%,6.9,0.0%,·
COc1cc(NC2c3ccccc3C(=O)N2Cc2ccc3c(c2)OCO3)cc(OC)c1 (configuration not stated),1.3,-17%,-15%[15.4 µM],·,-1.0,2.4%,-3%
CCOC(=O)c1cnc(SCC(=O)c2ccc(Cl)cc2)nc1N,2.2,-4%,-34%[inhibitor],?,-5.1,3.8%,-10%
CCOC(=O)c1nc(C)sc1-c1ccnn1S(=O)(=O)c1ccc(C)cc1,3.7,-5%,-9%[15.4 µM],·,3.7,-0.6%,-8%
Cc1ccc(C(=O)N2CCN(c3ccc(NC(=O)c4cccs4)cc3)CC2)cc1,·,-17%,-22%,-6.1%,-2.0,4.8%,6%
Cc1ccc(NS(=O)(=O)c2cc(OCC(N)=O)c(C)cc2Cl)cc1,-0.3,6%,0%,-11%,-1.7,-1.5%,6%
